2A firefly: FMDV 2A StopGo reporter, firefly signal. HEK cells with a luciferase reporter of 2A StopGo recoding. Potency, µM (top dose mostly 57.5 µM), inactives show top-dose signal change, negative = less light. actives 0.23% (n = 120,000); active = well fitted falling curve with a large enough effect; inconclusive = small, poorly fitted or top-dose-only effect; inactive = no such curve, though single readings can be large or run the other way; note: nearly all actives have a fitted effect of over 60% in size; overnight with compound
2A Renilla: lowers the Renilla signal of an FMDV 2A StopGo reporter | HEK cells with a luciferase reporter of 2A StopGo recoding | Potency, µM (highest dose often 57.5 µM), for inactives: top-dose signal change, negative = less light | actives 0.32% (n = 120,000) | AID 1745857; active means well fitted falling curve with a large enough effect; inconclusive means small, poorly fitted or top-dose-only effect; inactive means no such curve, though single readings can be large or run the other way; note: nearly all actives have a fitted effect of over 55% in size; overnight with compound
* hit, by the source's call; u = inconclusive; [ ] = dose if it differs, or a comment. % is set by controls: 0 for no effect and ±100 for the full control effect; potency is the fitted concentration of half-maximal effect. No enrichment for hits. Share with any hit: about 0.55%.

Preview (2 entries):
SMILES | 2A firefly | 2A Renilla
Cc1ccc(NC(=O)c2ccc3ccccc3n2)c(Cl)c1 | 21% | -6%
CCOC(=O)C1CCN(c2nc3ccccc3nc2C(C#N)C(=O)NCc2ccccc2)CC1 (stereo not drawn) | 7% | 4%

All compounds of this part, from the start:
SMILES | 2A firefly | 2A Renilla
Cc1ccc(NC(=O)c2ccc3ccccc3n2)c(Cl)c1 | 21% | -6%
CCOC(=O)C1CCN(c2nc3ccccc3nc2C(C#N)C(=O)NCc2ccccc2)CC1 (stereo not drawn) | 7% | 4%
CC(C1CC1)N(CC(F)(F)F)C(=O)CN(C)CC(=O)NCc1ccco1 (stereo not drawn) | -2% | -16%[1.06 µM]
Cc1ccccc1C(C)NC(=O)c1cc2ccccc2oc1=O (stereo not drawn) | 89%[activator] | 3%
Cc1ccc(-c2nn(CC(=O)NC3CCCC3)c3c2cnc2ccccc23)cc1 | -4% | 0%
CC(O)C(=O)Nc1ccc(C(N)=O)cc1 (stereo not drawn) | 12% | -9%[1.06 µM]
CN(CC(=O)N1c2ccccc2SCC1c1ccccc1)Cc1nc2ccccc2c(=O)[nH]1 (stereo not drawn) | -22% | -18%
Cn1cc2c(C(F)F)cc(=O)n(CCC(=O)O)c2n1 | 4% | 0%
Cc1ccc2nc(C)c(C(=O)OCC(=O)NCC3CCCO3)cc2c1 (stereo not drawn) | 18% | -1%
CCOc1ccc(Nc2nnc(-n3nc(C)cc3C)c3ccccc23)cc1 | 15% | 14%
COc1ccc(CC(=O)Nc2ccc(C(=O)NC(C)(C)C)cc2)cc1 | 25% | -9%
Cc1cc(NC(=O)CCNS(=O)(=O)c2ccc3c(c2)oc(=O)n3C)ccc1Br | -13% | 9%
COc1ccc2cc(C(=O)NCCC(=O)Nc3ccc4c(c3)OCCO4)[nH]c2c1 | 44%[activator] | 6%
CCc1ccc(C(=O)Oc2ccc(OC(=O)c3ccc(CC)cc3)c(-c3ccccc3)c2)cc1 | 18% | 13%
Cc1ccc(-c2cc(C(=O)OCC(N)=O)c3ccccc3n2)cc1 | 100%[activator] | 7%
CCn1c(COc2ccccc2Cl)nnc1SCc1cc(=O)c2cc(C(N)=O)ccc2[nH]1 | -6% | -1%
COc1ccc(-n2c(C)c(C)c3c2ncn2nc(-c4cccs4)nc32)cc1 | 5% | -3%
O=C1NC(C(=O)O)=CC(c2ccccc2Cl)N1 (stereo not drawn) | -5% | -13%
Cc1cc2oc(=O)cc(CN3CCOCC3)c2c(C)c1Cl | -2% | -9%
CCc1ccc(NC(=O)C2CCN(S(=O)(=O)c3c(C)noc3/C=C\c3ccc(OC)cc3)CC2)cc1 | u | u
O=C(CN(Cc1cccs1)CC1CCCO1)Nc1ccc2ccccc2c1 (stereo not drawn) | 103%[activator] | 0%
Cc1cccc(NC(=O)c2ccc(CN3CC(=O)N4CCCCC4C3=O)cc2)c1C (stereo not drawn) | -13% | -8%
CC1CCCC(NC(=O)c2ccc(F)cc2F)C1C (stereo not drawn) | 39%[activator] | 18%
CCC(=O)Nc1sc2c(c1C(=O)Nc1ccc(Br)cc1)CCCCC2 | 57%[activator] | -27%
CN(C)c1nc(OC(C(F)(F)F)C(F)(F)F)nc(N2CCOCC2)n1 | -2% | -5%
Cc1ccc(/C=C/C(=O)Nc2ccccc2C(N)=O)o1 | 192%[activator] | 6%
COc1ccc(C(C)=O)cc1COC(=O)Cc1ccc(Br)cc1 | -1% | -7%
COc1cccc(CNC(=O)CN2C(=O)N(c3ccc(C(C)C)cc3)S(=O)(=O)c3ccccc32)c1 | 3% | 0%
COc1ccc(-n2c(=O)c3c(n4cnnc24)-c2ccccc2CC32CCCC2)cc1 | -9% | -10%
O=C(Nc1ccc(F)cc1)Nc1csc2c1CCCC2 | 46%[activator] | 148%[activator]
Cc1cc(C)cc(NC(=O)C2CCCN2c2ncnc3ccccc23)c1 (stereo not drawn) | -13% | -22%
O=C(CN(CCc1ccccc1)S(=O)(=O)c1ccc(Br)cc1)NCc1ccc(Cl)cc1 | -16% | -7%
Cc1ccc(NC(=O)c2n[nH]c(=O)c3ccccc23)c(C)c1 | 95%[activator] | -4%
CC1=C(c2ccc(C)cc2)S(=O)(=O)N(Cc2ccc(C(=O)Nc3ccccc3C)cc2)C1=O | -1% | -9%
Cc1cccc(-c2noc(-c3cccnc3NCc3ccc(Cl)cc3)n2)c1 | 70%[activator] | 1%
Cc1ccc(C(=O)Nc2ccc(S(=O)(=O)Nc3onc(C)c3C)cc2)cc1 | 40%[activator] | 7%
O=C(CN1CCCC(c2nc3ccccc3o2)C1)N1CCNC1=O (stereo not drawn) | 8% | -10%
CCN(CC)CCn1c(=O)n(-c2ccc(Cl)cc2)c(=O)c2c3c(sc21)CN(C)CC3 | 21% | -22%
Cc1cc(C)nc(-n2nc(C)c3c2N(Cc2ccccc2F)C(=O)CC3c2ccc(Cl)cc2)n1 (stereo not drawn) | -14% | 74%[activator]
COc1cc(OC)cc(-n2c(=O)c3sccc3n(Cc3ccc(F)cc3)c2=O)c1 | -6% | -14%

Taken from the results shown, 3 compounds:
SMILES | 2A firefly | 2A Renilla
Cc1cccc(NC(=O)c2ccc(CN3CC(=O)N4CCCCC4C3=O)cc2)c1C (stereo not drawn) | -13% | -8%
CC1CCCC(NC(=O)c2ccc(F)cc2F)C1C (stereo not drawn) | 39%[activator] | 18%
CCC(=O)Nc1sc2c(c1C(=O)Nc1ccc(Br)cc1)CCCCC2 | 57%[activator] | -27%

Following part:
SMILES | 2A firefly | 2A Renilla
CCOC(=O)c1cc(-c2ccc(F)cc2)n(CCC(=O)NCc2ccccc2OC)c1C | u | -10%
NCc1ccccc1OC(F)F | 12% | 18%
CCc1ccc(NC(=O)c2sc3nc(C)c(Cl)c(C)c3c2NC(=O)c2ccccc2OC)cc1 | 22% | -7%
CC(C)NC(=O)c1cc2cc(Br)ccc2[nH]1 | -25% | u
Cc1cc(=O)oc2cc(NC(=O)COc3cccc(C(F)(F)F)c3)ccc12 | 2% | 2%
CCOC(=O)CSc1nc(-c2ccccc2)cc(C(F)(F)F)c1C#N | -17% | -18%
CCC(=O)Nc1cccc(NC(=O)c2ccc(C)cc2)c1C | 42%[activator] | 5%
CCCc1cc(=O)oc2cc(OC(C)C(=O)NCCCN3CCCC3=O)c(Cl)cc12 (stereo not drawn) | 0% | -2%
CCc1cccc(NC(=O)Nc2csc3c2CCCC3)c1 | 0% | 93%[activator]
Cc1ccc(COC(=O)c2ccc(Cl)c(S(=O)(=O)N3CCOCC3)c2)cc1 | -5% | -6%
O=C(CCCCn1c(=O)c2ccccc2n(CC(=O)Nc2cccc(F)c2)c1=O)NCCc1ccccc1 | -22% | -13%
Cn1c(=O)oc2cc(S(=O)(=O)NC(Cc3ccccc3)C(=O)Nc3ccc(F)c(Cl)c3)ccc21 (stereo not drawn) | -26% | 6%
O=c1c(-c2ccc(Cl)cc2)coc2cc(OCCN3CCCCC3)ccc12 | 33%[activator] | u
CCCN1C(C(C)=O)=C(OC(=O)c2ccccc2)c2ccccc2S1(=O)=O | 72%[activator] | 63%[activator]
O=S(=O)(c1cccc(-c2nc3ccccc3s2)c1)N1CCCCCC1 | 89%[activator] | 5%
O=C(NC1CCCC1)C(Cl)c1ccccc1 (stereo not drawn) | 0% | 6%
CCOc1ccccc1NC(=O)c1sc2nc3c(cc2c1N)CN(Cc1ccccc1)CC3 | 9% | -7%
CCN(CC)S(=O)(=O)c1ccc(C(=O)C(C#N)c2nc(C)cs2)cc1 (stereo not drawn) | 37%[activator] | 3%
CCCCn1c(Br)nc2c(=O)n(C)c(=O)n(C)c21 | 5% | -10%
O=C(O)CNCc1cccc2ccccc12 | 3% | 3%
COC(=O)c1cccc(OC(=O)c2cccs2)c1 | 31%[activator] | -9%
Cc1cnc(C(=O)Oc2ccc(Cl)c3ccccc23)cn1 | 25% | -4%
Cc1ccc(C)c(NC(=O)COC(=O)c2ccc3ccccc3n2)c1 | -5% | -15%
CCc1cc(=O)oc2c(C)c(OCC(=O)NC3CC(C)(C)NC(C)(C)C3)ccc12 | -17% | -25%
Cc1c(C(=O)OCCOc2ccccc2)[nH]c2c1C(=O)CC(c1ccc(C(C)(C)C)cc1)C2 (stereo not drawn) | -11% | -7%
CN(Cc1nc2ccccc2o1)Cc1ccccc1Cl | 91%[activator] | 5%
Cc1cc(Nc2ccccc2C)nc(-n2nc(C)cc2C)n1 | u | u
O=C(NC1CCc2cc(F)ccc21)C1CCCC1 (stereo not drawn) | -7% | -4%
CN(C(=O)CCc1nc2ccccc2c(=O)[nH]1)C1CCCC1 | 7% | -12%
O=C(NCCc1nnc2n1CCCCC2)Nc1ccc(Cl)cc1 | -3% | -1%
COc1ccc(OCCNC(=O)c2cc3ccccc3[nH]2)cc1 | 152%[activator] | 39%[activator]
CCN(CC)CCNC(=O)CS(=O)Cc1nc(-c2ccccc2Cl)oc1C (stereo not drawn) | 4% | -6%
COc1ccccc1-c1nc(SCC(=O)NCc2ccccc2)c2c(=O)n(C)c(=O)n(C)c2n1 | -11% | -12%
Cc1ccc(Nc2nc(NCCO)nc3c2cnn3C)c(C)c1 | 7% | 4%
CC(C)CC(NC(=O)C1CCC(C)CC1)C(=O)O (stereo not drawn) | 9% | 13%
Cc1oc(-c2cccs2)nc1C(=O)N1CCOCC1C (stereo not drawn) | 3% | -10%
CCC(C)NC(=O)Cn1c(=O)n(Cc2ccc(C(=O)NCc3ccccc3OC)cc2)c(=O)c2ccccc21 (stereo not drawn) | -9% | 4%
CN(C)c1ccc(CNS(=O)(=O)c2ccc3[nH]c4c(c3c2)CCCCC4)cc1 | -8% | 0%
COc1ccc(NS(=O)(=O)c2cc(C(=O)N3CCCC3)cs2)cc1 | -6% | 3%
CN(C)CCCOC1(Cc2ccccc2)CCCCCC1 | -25% | -18%
CN(C)C1(CNC(=O)COc2ccc(C(C)(C)C)cc2)CCCCC1 | -10% | -1%
COC(=O)Nc1ccccc1Cc1ccccc1 | -7% | -9%
COc1ccc(C2c3c(n[nH]c3C)Nc3[nH]c(=O)[nH]c(=O)c32)c(OC)c1 (stereo not drawn) | -9% | -11%
CSc1ccccc1NC(=O)c1cc(F)cc(F)c1 | 2% | 0%
CCc1cccc(C)c1NC(=O)c1cnn(-c2ccc(OC)cc2)c1C1CCN(C(=O)OC(C)(C)C)CC1 | -25% | 161%[activator]
Cc1ccc(C(CNC(=O)c2cccs2)N2CCCCC2)o1 (stereo not drawn) | -9% | -9%
CC(Oc1ccccc1C#N)C(=O)NC1CC1 (stereo not drawn) | 17% | 1%
Cc1ccsc1CNCC(O)c1ccccc1 (stereo not drawn) | 0% | 19%
O=C(Cc1c[nH]c2ccccc12)NCC1(N2CCCCC2)CCCCC1 | 3% | -6%
Cc1ccc(-n2nc(CO)c(C(=O)NCCc3ccccc3)n2)cc1 | -12% | -10%
Cc1cc(=O)oc2cc(OC(C)C(=O)NCCc3ccc(S(N)(=O)=O)cc3)ccc12 (stereo not drawn) | 9% | 12%
CN(C)c1ccc(CNC(=O)CCCN2C(=O)c3cccnc3Oc3ccc(Cl)cc32)cc1 | -15% | -11%
COc1ccc(Nc2nc(N)c(C(=O)c3ccc(C)cc3C)s2)cc1 | 139%[activator] | 129%[activator]
C=CCn1c(=O)c2c(nc(-n3nc(CC)cc3CC)n2C)n(C)c1=O | 32%[activator] | -3%
Cc1ccccc1Cn1c(=O)n(CCC(=O)NCc2ccco2)c(=O)c2sccc21 | 18% | 18%
Cc1c(-n2nnnc2SC(C)c2ccccc2)c(=O)n(-c2ccccc2)n1C (stereo not drawn) | 4% | 5%
O=C(Nc1ccccc1C(=O)c1ccccc1)c1ccc(-c2ccccc2)cc1 | 0% | 10%
CCOC(=O)c1ccsc1NC(=O)Cn1nnc(-c2ccccc2)n1 | -4% | 1%
O=C(CCCN1CCC2(CC1)C(=O)NCN2c1ccccc1)c1ccc(F)cc1 | -9%[11.5 µM] | -12%
NC(=O)NC(=O)COC(=O)c1ccc2c(c1)OCCO2 | 10% | -6%
CN1CCN(CCOc2ccc3c(=O)c(-c4ccccc4)coc3c2)CC1 | 192%[activator] | 2%
COc1cc(-c2nc(S(=O)(=O)c3ccc(Br)cc3)c(N3CCOCC3)o2)cc(OC)c1OC | -17% | -6%

Given as a markdown table: part of the list above.
| mol | 2A firefly | 2A Renilla |
| --- | --- | --- |
| O=C(CCCN1CCC2(CC1)C(=O)NCN2c1ccccc1)c1ccc(F)cc1 | -9%[11.5 µM] | -12% |
| CC(Oc1ccccc1C#N)C(=O)NC1CC1 (stereo not drawn) | 17% | 1% |
| C=CCn1c(=O)c2c(nc(-n3nc(CC)cc3CC)n2C)n(C)c1=O | 32%[activator] | -3% |
| O=C(Cc1c[nH]c2ccccc12)NCC1(N2CCCCC2)CCCCC1 | 3% | -6% |

One compound at a time (already shown). Screens in order: 2A firefly, 2A Renilla
Results for Cc1cc(=O)oc2cc(OC(C)C(=O)NCCc3ccc(S(N)(=O)=O)cc3)ccc12 (stereo not drawn) : 9%, 12%
Results for COc1ccc(C2c3c(n[nH]c3C)Nc3[nH]c(=O)[nH]c(=O)c32)c(OC)c1 (stereo not drawn) : -9%, -11%
Results for C=CCn1c(=O)c2c(nc(-n3nc(CC)cc3CC)n2C)n(C)c1=O : 32%[activator], -3%

Bioassay records deposited in PubChem by National Center for Advancing Translational Sciences (NCATS).
